Rango complex inh: inhibitors of Rango-importin beta complex formation; Potency, µM (top dose mostly 92.2 µM), without a hit: at the top dose inhibition of complex formation; hit rate 0.031% among 340,000; Rango CFP/YFP FRET sensor + importin beta, 45 min; Q14974; active = rising FRET ratio curve, often small or poorly fitted; inconclusive = mostly compound fluorescence or quenching in the first reads; inactive = flat curves in all reads;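 further: potency means the concentration at half of the fitted maximal effect; 0% = DMSO wells and 100% = buffer wells lacking importin beta; nearly all actives have a fitted effect of over 15% in size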
Target sequence (Q14974 whole entry, looked up): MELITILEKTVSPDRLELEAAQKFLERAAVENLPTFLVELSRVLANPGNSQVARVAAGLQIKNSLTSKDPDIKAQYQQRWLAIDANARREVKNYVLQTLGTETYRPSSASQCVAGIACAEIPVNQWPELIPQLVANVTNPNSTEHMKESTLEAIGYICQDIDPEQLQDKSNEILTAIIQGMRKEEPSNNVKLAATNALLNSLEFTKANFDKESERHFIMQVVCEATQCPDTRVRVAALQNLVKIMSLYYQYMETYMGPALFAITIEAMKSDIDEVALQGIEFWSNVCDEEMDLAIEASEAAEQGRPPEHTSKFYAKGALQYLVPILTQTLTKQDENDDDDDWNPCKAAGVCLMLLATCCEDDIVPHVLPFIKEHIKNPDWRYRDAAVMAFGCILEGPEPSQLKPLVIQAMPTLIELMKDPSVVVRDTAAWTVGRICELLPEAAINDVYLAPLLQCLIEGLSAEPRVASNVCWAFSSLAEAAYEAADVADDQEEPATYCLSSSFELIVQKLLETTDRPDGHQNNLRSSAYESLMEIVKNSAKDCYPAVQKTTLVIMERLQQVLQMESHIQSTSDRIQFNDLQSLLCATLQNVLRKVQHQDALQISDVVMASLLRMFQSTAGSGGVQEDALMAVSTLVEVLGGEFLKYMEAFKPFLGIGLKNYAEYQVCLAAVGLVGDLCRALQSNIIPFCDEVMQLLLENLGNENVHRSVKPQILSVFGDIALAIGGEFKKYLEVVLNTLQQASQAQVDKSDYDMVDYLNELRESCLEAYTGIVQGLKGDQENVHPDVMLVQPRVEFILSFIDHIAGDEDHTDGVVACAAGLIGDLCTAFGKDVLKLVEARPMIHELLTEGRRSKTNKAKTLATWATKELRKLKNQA
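FRET biosensor Rango (snurportin 1 IBB between N-terminal EYFP and C-terminal Cerulean), 50 nM in PBS/1 mM DTT/0.02% Tween-20/0.1% BSA, preincubated 5 min RT with compound; 0.125 microM importin beta added, 45 min RT, CFP/YFP FRET ratio read.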
miR-21 reporter: raises the signal of a miR-21 reporter | Potency, µM (titrated, usually from 38.3 µM), without a hit: at the top dose reporter change, positive = more light | AID 2288 | HeLa miR-21 FLuc reporter, luciferase, 48 h | 340,000 tested, under 10 active; active = well fitted rising curve with a large enough effect; inconclusive = small, poorly fitted or top-dose-only effect; inactive = no such curve, though single readings can be large or run the other way;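 further: % of control where 0% means no effect; miR-21 action dims this reporter so a rising signal means less miR-21 action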
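HeLa cells stably expressing CMV-driven firefly luciferase with a downstream miR-21 binding sequence, endogenously expressing miR-21, were treated with titrations (up to about 40uM final) for 48 hours at 37 degree Celsius. Luciferase luminescence was read after lysis.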
Rango release inh: inhibitors of RanGTP-induced Rango-importin beta complex dissociation. O95149+P62826. hit rate 0.071% among 340,000. AID 540253. Biochemical FRET Rango-importin beta, RanGTP-induced dissociation. Potency, µM (highest dose often 46.1 µM), for the others: at the top dose activity change, negative = inhibition; active means falling FRET ratio curve, often poorly fitted, with flat reads before Ran was added; inconclusive means other falling curves, or compound fluorescence or quenching; inactive means flat or rising ratio curve;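 further: potency means the concentration at half of the fitted maximal effect; % of control where 0% means no effect; nearly all actives have a fitted effect of over 45% in size; -100% = wells without RanGTP and RCC1; the record marks most hits as doubtful in a second field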
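Rango FRET biosensor (snurportin-1 IBB flanked by N-terminal EYFP and C-terminal CFP10) at 0.1 uM, with 0.25 uM importin beta in PBS, 1mM DTT, 0.02% Tween-20, 0.1% BSA. 0.6 uM Ran, 2mM GTP and 0.2 uM RCC1 were then added for 45 min at room temperature. Inhibition read as loss of FRET rise.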
GLA inh pH 4.5: blocks human alpha-galactosidase A at pH 4.5 | P06280 | purified enzyme, 4-MU-alpha-Gal fluorescence, pH 4.5 | activity change, negative = inhibition, % at 105 µM | 230,000 tested, under 10 active; inconclusive = small, poorly fitted or top-dose-only inhibition, or a rising curve; inactive = flat fitted curve, though single readings scatter; no compound was filed as active;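 further: 0% = full activity with enzyme and -100% = basal without enzyme; dose as in the result columns while the protocol names 77 µM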
Numbers without * were called inactive; u = inconclusive; x = no result given; & = joins results of further samples. These rows are one share of the data; rates above refer to the full screens.

The opening five entries (preview)
SMILES	Rango complex inh	miR-21 reporter	Rango release inh	GLA inh pH 4.5
COc1cccc(NS(=O)(=O)c2ccc3[nH]cc(C(=O)N(C)Cc4ccco4)c(=O)c3c2)c1	3.8%	1.1%&-0.1%	-0.8%	6.3
Cn1ncc2c(NNC(=O)c3ccc(O)cc3)ncnc21	-0.6%	0.4%	-0.9%	-1.0
CC1CCN(C(=O)CCN2C(=O)/C(=C/c3cccs3)SC2=S)CC1	-0.3%	-3.5%	-7.9%	x
COc1cc(-c2nc(CN3CCN(c4ncccn4)CC3)c(C)o2)ccc1F	-0.3%	-10.8%	16.7%	0.1
CN1C[C@@H]2[C@@H]3C(=O)N(C)C(=O)[C@@H]3[C@](Cc3ccccc3)(C1=O)N2C(=O)c1ccc(Cl)cc1	u	x	-9.0%	x

Results, from the start:
SMILES	Rango complex inh	miR-21 reporter	Rango release inh	GLA inh pH 4.5
COc1cccc(NS(=O)(=O)c2ccc3[nH]cc(C(=O)N(C)Cc4ccco4)c(=O)c3c2)c1	3.8%	1.1%&-0.1%	-0.8%	6.3
Cn1ncc2c(NNC(=O)c3ccc(O)cc3)ncnc21	-0.6%	0.4%	-0.9%	-1.0
CC1CCN(C(=O)CCN2C(=O)/C(=C/c3cccs3)SC2=S)CC1	-0.3%	-3.5%	-7.9%	x
COc1cc(-c2nc(CN3CCN(c4ncccn4)CC3)c(C)o2)ccc1F	-0.3%	-10.8%	16.7%	0.1
CN1C[C@@H]2[C@@H]3C(=O)N(C)C(=O)[C@@H]3[C@](Cc3ccccc3)(C1=O)N2C(=O)c1ccc(Cl)cc1	u	x	-9.0%	x
COc1ccc(NC(=O)CSc2nnc(-c3cccnc3)n2C)cc1	-3.4%	-4.4%	9.3%	2.3
COc1ccc(Br)c2oc(S)cc(=O)c12	-0.4%	0.2%	-10.8%	0.7
Cc1cc(C)cc(OCC(=O)NC(C)c2ccccc2)c1 (stereo unspecified)	u	-5.8%	-18.0%	x
Fc1ccc(Nc2ncnc3sc4c(c23)CCC4)cc1F	1.2%	-9.0%	-21.7%	3.0
Cc1ccc(S(=O)(=O)N2CCCCC2)cc1NC(=O)COC(=O)c1ccc2c(c1)OCO2	-1.5%	-6.3%	-4.2%	-16.0
CCOC(=O)c1ccccc1NC(=O)COC(=O)c1cc([N+](=O)[O-])ccc1N1CCOCC1	5.5%	x	10.6%	x
COc1cc(OC)cc(C(=O)Nc2nnc(SCC(=O)NCC3CCCO3)s2)c1 (stereo unspecified)	0.0%	-6.4%	0.1%	x
COc1ccc(/C=C(\NC(=O)c2ccc(OC)cc2)C(=O)Nc2ccc(C(=O)O)cc2)cc1	2.5%	-0.2%	-0.6%	x
CN(NC1CC(=O)N(c2ccccc2)C1=O)c1ccccc1 (stereo unspecified)	-0.7%	-36.5%	5.0%	-13.7
CCn1c(/C=C/Nc2ccccc2)[n+](CC)c2cc(Cl)c(Cl)cc21	u	1.1%	-8.9%	-1.6
CN1CCN(C(=O)C2=C[C@@H](c3coc4ccccc4c3=O)C[C@@H](OCc3ccc(CO)cc3)O2)CC1	3.3%	-9.0%	14.4%	3.3
C/C=C/c1ccc(OCCCCOc2ccccc2C(C)=O)c(OC)c1	-1.1%	13.7%	-1.1%	-5.2
CC(C)(C)c1ccc(C(=O)NCCCNC(=O)c2ccco2)cc1	2.9%	-13.3%	u	x
COc1cccc(NC(=O)Nc2cc(Cl)ccc2C)c1	1.7%	10.9%	30.8%	-5.1
COc1ccc(S(=O)(=O)N/N=C(/C)c2ccc(Cl)cc2)cc1	0.0%	-0.7%	2.9%	2.0
O=C(Cc1ccc(Br)cc1)N1CCCC1	-5.0%	-12.7%	37.7%	x
Cc1ccc(C(=O)N(Nc2nc3ccccc3s2)C(=O)c2ccc(C)cc2)cc1	0.1%	-6.6%	0.3%	-1.8
CCCCNCCOCCOc1ccc(Cl)cc1Br	-2.0%	-4.2%	-12.1%	2.9
O=c1c2ccc(Cl)cc2nc(-c2ccc([N+](=O)[O-])cc2)n1O	2.1%	-0.2%	10.7%	3.1
CCOC(=O)c1c(NC(=O)CN2C(=O)C(=O)N(C(C)C)C2=O)sc(C)c1CC	-2.2%	x	-13.5%	x

New compounds follow.
SMILES	Rango complex inh	miR-21 reporter	Rango release inh	GLA inh pH 4.5
CCc1ccc(NC(=O)c2cc(-c3ccc4c(c3)OCO4)on2)cc1	0.5%	-7.5%	-1.1%	x
Cc1ccc(NCCN(C)C)c2c(=O)c3cc(O)ccc3sc12	3.6%	x	2.3%	x
CCOC(=O)c1c(NC(=O)CSc2nncn2C)sc(C)c1C	-1.9%	-2.1%	0.3%	-8.2
COc1ccccc1NC(=S)NC1CCCCCC1	-3.3%	-4.9%	33.0%	-3.3
COc1cc2c(cc1OC)CN(C(=O)Cc1ccccc1)CC2	-2.0%	-1.1%	-2.0%	x
Nc1nnnn1/N=C/c1cc(Cl)cc(Cl)c1OCc1ccc(Cl)cc1Cl	u	-4.9%	u	-3.7
Cc1c(C(=O)N(Cc2ccc(Cl)cc2)C2CCS(=O)(=O)C2)oc2ccccc12 (stereo unspecified)	0.5%	-4.1%	2.3%	x
COC(=O)c1ccc(Cn2nc(C)cc2C)cc1	-0.9%	-11.4%	19.9%	5.8
Nc1cc(=O)nc(SCC(=O)N2CCN(c3ccccc3)CC2)n1-c1ccccc1	0.2%	-2.3%	-0.9%	x
O=C1c2ccccc2C(=O)N1c1nccs1	2.4%	x	10.1%	x
COc1ccc(S(=O)(=O)N2CCC(C(=O)N[C@@H](C)C(=O)NCc3cccc(OC)c3)CC2)cc1	-1.3%	3.0%	6.5%	x
Cc1ccc(S(=O)(=O)N2CCOCC2)cc1C(=O)N1CCCC1	2.8%	-0.3%	5.3%	x
COC(=O)c1cccc(N(C(=O)CNC(=O)c2cccs2)C(C(=O)NCC2CCCO2)c2ccc(OC)c(OC)c2)c1 (stereo unspecified)	0.7%	-4.2%	6.7%	x
COc1cc(CN2CCN(Cc3ccc([N+](=O)[O-])cc3)CC2)c([N+](=O)[O-])cc1OC	-0.1%	16.5%	1.3%	-0.5
CC(C)CCN1CC(O)=C(c2nc(-c3ccc(Cl)cc3)cs2)C1=N	0.6%	-9.2%	-16.7%	-2.3
O=C(N/N=C/c1ccccn1)c1ccncc1	-2.9%	-25.5%	5.2%	x
CN1/C(=C\C=[N+](C)c2ccccc2)C(C)(C)c2ccccc21	u	u	-9.9%	-19.0
Cc1cc(O)c(C=Nc2ccc(N3CCOCC3)cc2)c(C)c1Cl	3.1%	-0.7%	-8.6%	x
C=CCn1c(SCC(=O)Nc2ccc(OC)cc2)nc2ccccc2c1=O	-2.3%	12.1%	-16.0%	x
CC(c1ccccc1)n1c(NCCCn2ccnc2)nc2c1c(=O)[nH]c(=O)n2C (stereo unspecified)	x	-6.5%	x	2.8
O=c1c(O[C@@H]2O[C@H](CO)[C@@H](O)[C@H](O)[C@H]2O)c(-c2ccc(O)cc2)oc2cc(O)cc(O)c12	-3.1%	x	6.9%	x
Cc1ccnc(NC(=O)c2ccc3c(c2)OCO3)c1	0.2%	-0.3%	8.2%	5.6
COc1ccc(CCNc2c(C)c(C)nc3ncnn23)cc1	-4.7%	22.4%	-15.6%	2.1
Cc1[nH]c2c(Cl)cccc2c(=O)c1CN1CCCCCC1	0.8%	-8.0%	-6.0%	x
O=C(COC(=O)c1cc(S(=O)(=O)N2CCOCC2)ccc1O)NCc1ccc2c(c1)OCO2	-1.0%	x	-6.4%	x

Additional compounds follow:
SMILES	Rango complex inh	miR-21 reporter	Rango release inh	GLA inh pH 4.5
Brc1ccc(-c2cnc3n2CCCC3)cc1	-6.2%	2.8%	-13.3%	3.0
COCCCC1CCN(C(=O)C2CCC(=O)N(C3CCCC3)C2)CC1 (stereo unspecified)	5.9%	-0.6%	1.8%	x
COCCn1c(=N)c(S(=O)(=O)c2ccc(Br)cc2)cc2c(=O)n3ccccc3nc21	-2.4%	-4.1%	u	x
CS(=O)(=O)c1nc(S(=O)(=O)c2ccc(Cl)cc2)c(NCCN2CCOCC2)s1	0.0%	0.9%	6.6%	x
CCc1cccc(CC)c1NC(=O)CN1CC(C)SC1=NC1CCCCC1 (stereo unspecified)	4.5%	-1.2%	-5.0%	-2.9
CCOC(=O)NC(=S)Nc1ccc(C(C)(C)C)cc1	-0.1%	-39.5%	-10.9%	-0.9
COc1ccc(/C=N/NC(=O)c2nc(-c3ccccc3)n(-c3ccccc3)n2)c(O)c1	u	8.6%	u	-2.5
COCCCNC(=O)Cn1cc2c(n1)CCCCC2	-0.4%	-8.6%	22.1%	12.2
CCCCNC(=O)c1ccc(C)c(NC(=O)C2=C(C)OCCS2)c1	-0.7%	-11.2%	-11.7%	x
CCCC[C@@H]1C[C@H]1[C@@H](NC(=O)c1cccs1)c1ccc(C(F)(F)F)cc1	-1.7%	x	-10.6%	x
Oc1c(Cl)cc(Cl)cc1C1Nc2ccccc2-n2cccc21 (stereo unspecified)	-1.9%	-3.2%	0.3%	-11.8
COc1cc(CNCCN2CCOCC2)ccc1OCc1cccc(Cl)c1	1.1%	-35.5%	1.8%	7.2
CCC(=O)N1CCc2cc(S(=O)(=O)N3CCN(c4ccccn4)CC3)ccc21	u	-2.2%	3.3%	-0.9
S=c1nc(-c2ccccc2)n(Cc2cccnc2)c2c1CCCC2	3.8%	-2.1%	-3.9%	-1.1
CN1C(=O)c2ccccc2N(C)C1c1ccccc1Cl (stereo unspecified)	-5.9%	-0.1%	6.7%	u
Cc1ccc(S(=O)(=O)Nc2ccccc2N2CCOCC2)cc1	-1.1%	16.7%	-0.9%	x
COC(=O)c1ccc(Sc2nnnn2-c2ccccc2)c([N+](=O)[O-])c1	-1.0%	26.2%	12.8%	0.7
CC(C)(C)C(=O)NC1CCN(CC(=O)Nc2ccc3c(c2)OCO3)CC1	0.6%	-0.1%	2.8%	x
O=C(OC1CCOC1=O)c1ccc(-c2nc3ccccc3s2)s1 (stereo unspecified)	-2.0%	-26.6%	-6.9%	-11.2
NNC(=O)c1ccc(COCC(F)(F)C(F)F)cc1	1.3%	3.7%	-3.6%	4.3
COc1ccc2[nH]c(=O)c(CN(Cc3cccnc3)Cc3nnnn3CC3CCCO3)cc2c1 (stereo unspecified)	-0.1%	1.8%	-1.6%	11.5
CCC(C)NC(=O)C1c2ccccc2C(=O)N1Cc1ccc(OC)cc1OC (stereo unspecified)	2.3%	-2.2%	-7.6%	3.2
CCCCc1cc(=O)oc2cc(OCC(=O)N3C[C@H]4C[C@@H](C3)c3cccc(=O)n3C4)ccc12	1.1%	-4.1%	-12.3%	x
COc1nc(Nc2ccc(C(C)=O)cc2)nc(OC)n1	1.0%	-28.2%	6.1%	0.9
Cc1cccc2cc(CN(CC3CCCO3)C(=O)c3ccncc3)c(=O)[nH]c12 (stereo unspecified)	9.6%	2.3%	-0.8%	7.5

Remaining list, next part
SMILES	Rango complex inh	miR-21 reporter	Rango release inh	GLA inh pH 4.5
COc1cc2c(c(O)c1OC)C(=O)C(OC)CCC2 (stereo unspecified)	1.0%	-5.3%	1.1%	4.8
O=C(NC1CCCCCC1)C(=S)N1CCCC1	0.0%	-2.4%	4.3%	4.8
Cc1c(C(=O)NCC2CCCO2)sc2nc(-c3ccccc3)cn12 (stereo unspecified)	2.6%	-21.1%	-10.5%	-4.9
COCCNC(=O)CCc1nnc(C2(c3ccc(Cl)cc3)CCC2)o1	4.7%	-8.2%	-10.4%	-1.7
CCCCc1c(O)nc2n(c1=O)CCS2	-3.4%	-5.1%	1.4%	2.1
O=C(N1CCOCC1)N1CCN(S(=O)(=O)c2ccc(Cl)cc2)C1	-0.9%	-5.2%	9.5%	x
CCOC(=O)C1CCCN(c2c(NCCN(C)Cc3ccccc3)c(=O)c2=O)C1 (stereo unspecified)	-4.0%	-6.4%	-0.5%	-2.1
O=C1OC(=O)c2c(Br)c(Br)c(Br)c(Br)c21	2.1%	x	-7.1%	x
CCOC(=O)c1cc(-c2csc(COc3ccc(Cl)cc3)n2)on1	-3.2%	-3.4%	25.1%	2.7
CCCCCn1c(=O)c2ccccc2n2c(=S)[nH]nc12	0.9%	-3.6%	17.3%	x
COCCCNC(=O)c1cc2c(=O)n3cccc(C)c3nc2n(C(C)C)c1=N	u	-3.9%	u	7.9
c1csc(-c2nc3ccccc3s2)c1	3.3%	-69.4%	3.8%	8.4

From PubChem
